Yeast UUG start = yeast start codon fidelity modulation; S. cerevisiae UUG-firefly luciferase reporter, luminescence/redox ratio; AID 602363; hit rate 0.13% among 350,000; activity score, % at 18.7 µM;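 active means replicate mean at a twofold rise or more, about +100% in these data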;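 further: firefly luciferase made from a UUG start codon reports start codon fidelity; reporter light over untreated wells divided by growth signal over untreated wells; some hits fall short of that in this replicate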
MT1-MMP act inh = inhibitors of human MT1-MMP activation. P50281. HT1080 RFP-PRO-GFP cells, GFP/RFP ratio fluorescence, overnight; percent of plate control window, DMSO zero. GFP/RFP ratio change, % at 20 µM. hit rate 0.061% among 360,000;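 active means GFP/RFP ratio change of at least 30% with cell ATP level not reduced by more than half and red fluorescence within 50% of control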; further: strong numbers were not always called active
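Test system: HT1080 cells expressing an RFP-PRO-GFP fluorescent reporter construct / Compound dosing: single-point 20 µM compound, 1% DMSO / Schedule: cells overnight before dosing, compound overnight, 37 °C, 5% CO2 / Evaluation: GFP/RFP fluorescence ratio / Control set: DMSO and RFP-L50D-GFP cell wells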
CSC inhib = blocks cancer stem cells | cancer stem cell-like cells viability, luminescence | inhibition, % at 7.5 µM | hit rate 1.1% among 300,000;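 active means mean at 75% or more and at least half the replicates too; inconclusive means mean and replicates disagree; tested in HMLE shEcad cells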;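 further: 0% = median of negative and 100% = median of positive control wells; the first replicate is given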
PABP polyA inh = blocks human PABP binding to poly(A) RNA; AID 2014; fluorescence polarization; P11940; inhibition, % at 35 µM; hit rate 1% among 290,000;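 active means 50% or more with normal probe brightness, or confirmed in later tests; inconclusive means above 50% with abnormal brightness, or retests that disagree; inactive means below 50% or failed in later tests; about a fifth of its hits are not listed in these tables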;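 further: calls also rest on retests at 20 µM and on dose response follow-up; controls were probe without protein and protein plus probe with vehicle; some compounds called inactive have numbers as strong as hits; many hits fall short of the cut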
Rce1 inhib = yeast Ras-converting enzyme inhibition; Q03530; yeast membranes, quenched prenylated peptide cleavage fluorescence; calls only; hit rate 0.27% among 290,000;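 active means fall in fluorescence gain of 50% or more versus controls, with final raw signal at or below 3038400; inconclusive means same 50% fall but final raw signal above 3038400; inactive means fall in fluorescence gain under 50%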;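 further: plate controls were neutral control wells for no effect and wells lacking membranes for full effect; tested at 10 µM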
Target sequence (Q03530 whole entry, looked up): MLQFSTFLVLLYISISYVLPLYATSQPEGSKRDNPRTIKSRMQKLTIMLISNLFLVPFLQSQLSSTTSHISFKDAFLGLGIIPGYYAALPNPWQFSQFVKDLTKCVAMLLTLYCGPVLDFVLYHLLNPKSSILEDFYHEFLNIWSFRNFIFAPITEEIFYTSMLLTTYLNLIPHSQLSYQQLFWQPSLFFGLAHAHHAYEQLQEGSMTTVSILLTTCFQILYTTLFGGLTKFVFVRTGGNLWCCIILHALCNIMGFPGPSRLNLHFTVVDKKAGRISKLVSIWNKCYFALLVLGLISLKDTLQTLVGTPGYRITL
eIF4H inh = inhibitors of RNA binding by human eIF4H; Q15056; eIF4H fluorescence polarization binding assay; inhibition, % at 35 µM; hit rate 0.94% among 290,000; AID 2012;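 active means 50% or more with normal probe brightness, or confirmed in later tests; inconclusive means above 50% with abnormal brightness, or retests that disagree; inactive means below 50% or failed in later tests; about a fifth of its hits are not listed in these tables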;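 further: calls also rest on retests at 20 µM and on dose response follow-up; 0% = protein and probe with vehicle and 100% = probe without protein; strong numbers were not always called active; many hits fall short of the cut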
Env fusion inh = inhibitors of HIV Env-mediated cell fusion; HeLa-JRFL Env/CEM21 cell fusion, luciferase; AID 651610; inhibition, % at 12.3 µM; hit rate 1.1% among 360,000;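 active means mean replicate inhibition score of at least 50 and every replicate individually at or above 50; inconclusive means only one of the two criteria met; inactive means mean below 50 and not all replicates reaching 50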;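 further: 0% = plate neutral controls and 100% = maraviroc near 300 nM; one replicate is shown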
PABP polyA inh retest = second read-out of PABP polyA inh, no call of its own (marks repeat the call); inhibition, %; compound at 20 µM; confirmation repeats;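 mean of two retest wells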
MT1-MMP act inh RFP = also measured in MT1-MMP act inh; calls as there; RFP signal change, %; measured here: RFP expression control read;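 0 = vehicle wells; hits needed this value within 50% of zero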
An asterisk follows results filed as active; i = inactive; u = inconclusive; x = not tested or not shown; & = joins results of further samples; [ ] = another dose, or the depositor's remark.

SMILES	Yeast UUG start	MT1-MMP act inh	MT1-MMP act inh RFP	CSC inhib	PABP polyA inh	Rce1 inhib	eIF4H inh	Env fusion inh	others
O=C(CCCC(=O)N1CCCC1)N1CCCC1	14	-1	5	-10	6	i	0	4
CC1CC(C)(C)NC(=O)O1 (stereo not drawn)	-21	6	8	6	2	i	-5	x
CCN1CCN(C(c2cccc(OC)c2)c2sc3nc(C)nn3c2O)CC1 (stereo not drawn)	-7	1	1	-7	-19	i	0	-21
Cn1c(=O)c2c(nc(N/N=C/c3cccnc3)n2Cc2ccc(F)cc2)n(C)c1=O	x	-1	2	-22	-2	i	-6	-2
CC(C)CCNC(=O)c1ccc2nc[nH]c2c1	x	x	x	0	0	i	-8	x
N#Cc1ccc(CSc2nnc(-c3cccnc3)o2)cc1	x	0	-4	-11	-2	i	-8	8
CCN(CC)S(=O)(=O)c1ccc2c(c1)nc(SCC(=O)N1CCOCC1)n2-c1ccccc1OC	20	6	4	-6	-5	i	3	23
CCOc1ccc(-c2nc(N)ncc2-c2ccccc2)c(O)c1	-24	4	-8	-4	7	i	6	39
Cn1c(NC(=O)c2ccccc2)nc2ccccc21	-17	5	3	16	-2	i	0	-83
COc1ccc(OC)c2sc(NC(=O)CCS(=O)(=O)c3ccccc3)nc12	23	3	-3	109*	x	i	x	32
CCN(CC)C(=O)c1sc(NC(=O)c2ccco2)c(C#N)c1C	-13	-10	1	-1	-1	i	0	-7
CCn1c(SCC(=O)c2ccc(O)c(O)c2)nnc1-c1ccccc1	x	8	-5	17	14	i	41	x
COc1ccc(-c2n[nH]c(C)c2-c2ccccc2OC)c(O)c1	x	-5	-14	2	-12	i	-21	1
CC(C)(C)NC(=O)C(=O)NNC(=O)c1cccc([N+](=O)[O-])c1	x	-2	0	-7	1	i	-3	5
COCCNc1nc2c(-c3cccc(C(F)(F)F)c3)nnn2c2ccccc12	10	0	3	-1	-8	i	-2	6
CS(=O)(=O)c1ccc2nc(NC(=O)c3cccs3)sc2c1	-14	5	-6	31	8	x	-4	x
COc1ccc(C2CC(=O)c3cnc(NC(=O)c4ccco4)nc3C2)cc1 (stereo not drawn)	2	-4	0	3	-12	i	-8	9
Cc1ccc(S(=O)(=O)N2CCCCC2)cc1NC(=O)CSc1nnnn1C	x	-3	-1	-22	6	i	2	3
O=C(CSc1nc(-c2ccco2)cc(C(F)(F)F)n1)N1CCN(c2cccc(Cl)c2)CC1	x	2	-6	48	-3	i	-12	x
OC(c1cccnc1)c1nc(-c2cccc(F)c2)cs1 (stereo not drawn)	-6	1	-6	x	x	x	x	0
CCOc1ccc(NC(=O)CN(C)C(=O)CCSc2ccc(F)cc2)cc1OCC	-1	5	-1	x	x	x	x	3
Cc1ccc(CSc2ccc(S(=O)(=O)N3CCOCC3)cn2)cc1	-6	3	1	-20	x	x	x	x
O=C(NCc1nnc2c3ccccc3c(-c3ccccc3)nn12)c1ccc(Cl)cc1	x	1	-4	3	-5	i	-2	4
N=c1c(C(=O)NCC2CCCO2)cc2c(=O)n3ccccc3nc2n1Cc1cccnc1 (stereo not drawn)	-15	-10	3	5	13	i	11	x
CCOc1ccc(C(=O)Nc2ccccc2N2CCOCC2)cc1	-4	3	2	-15	0	i	-5	x

Already shown: entries from further up.
SMILES	Yeast UUG start	MT1-MMP act inh	MT1-MMP act inh RFP	CSC inhib	PABP polyA inh	Rce1 inhib	eIF4H inh	Env fusion inh	others
Cn1c(=O)c2c(nc(N/N=C/c3cccnc3)n2Cc2ccc(F)cc2)n(C)c1=O	x	-1	2	-22	-2	i	-6	-2
CC(C)CCNC(=O)c1ccc2nc[nH]c2c1	x	x	x	0	0	i	-8	x
N#Cc1ccc(CSc2nnc(-c3cccnc3)o2)cc1	x	0	-4	-11	-2	i	-8	8

(next part)
SMILES	Yeast UUG start	MT1-MMP act inh	MT1-MMP act inh RFP	CSC inhib	PABP polyA inh	Rce1 inhib	eIF4H inh	Env fusion inh	others
CCn1cc(CNCc2cn(-c3ccccc3C)nc2-c2ccc(OC)c(F)c2)cn1	x	2	0	5	-12	i	-7	u
Cc1ccc(S(=O)(=O)N2CCOCC2)cc1NC(=O)c1ccncc1	-13	-2	5	x	x	x	x	-67
CCCCCCn1c(SCCC)nc2c1c(=O)[nH]c(=O)n2C	-1	2	-7	-16	-11	i	27	x
C[C@H]1CN=C(Nc2ccccc2)N1CCCC1CCCCC1	-6	3	1	3	2	i	-14	-16
C=CCOc1c(Cl)cc(C2NC(=O)NC(C)=C2C(=O)OC)cc1Cl (stereo not drawn)	-10	6	-7	9	6	i	7	x
CCCCN(CCCC)/C(N)=N/c1nc(C)cc(C)n1	x	-4	-3	x	-4	i	-1	5
O=C(NNc1cccc(Cl)n1)c1ccc(Cl)nc1	x	-1	3	7	-13	x	-2	-13
O=C(c1ccc(CS(=O)Cc2ccccc2Cl)o1)N1CCN(C2CCCCC2)CC1 (stereo not drawn)	-10	2	-1	-13	15	i	16	0
CC(C)(C)NC(=O)CSc1nncn1NCc1c(Cl)cccc1Cl	-3	1	2	1	3	i	-2	x
COc1cccc(NC(=O)c2ccccc2-c2nc(-c3ccccc3)no2)c1	-16	5	-1	-8	10	i	-1	x
COc1ccc(Oc2nnnn2-c2ccccc2)cc1	-14	3	-5	-13	2	i	-4	-25
Cc1ccc(Cn2nc(C)c(NC(=O)c3cc(-c4ccc5c(c4)OCO5)on3)c2C)cc1	x	x	x	27	1	i	12	23
Nc1nc[nH]c(=O)c1N=Cc1ccccc1	-16	-2	1	-1	10	i	-2	14
N#Cc1c(NC(=O)Cn2nc(C(F)(F)F)c3c2CCCC3)sc2c1CCC2	-15	-2	4	-5	-8	i	-4	-91
CC(C)(C)NC(=O)NC(=O)COC(=O)CCCc1c[nH]c2ccccc12	-5	3	1	9	1	i	19	-31
Cc1cc(-n2cnc3c(=O)[nH]cnc32)ccc1N	-13	0	4	-21	8	i	-4	-24
Cc1nc(NC(=O)CSc2nnc3ccccn23)c(Cl)cc1Cl	x	1	0	x	1	i	-9	x
O=C1CC(c2ccccc2)C(=O)N1c1cccc(O)c1 (stereo not drawn)	-45	1	8	x	-6	i	-6	x
COc1cccc(S(=O)(=O)N(C)C[C@H]2Oc3cc(Br)ccc3S(=O)(=O)N([C@@H](C)CO)C[C@H]2C)c1	-7&14	-1	-4	x	x	x	x	19[16.7 µM]
O=C(C1CCN(S(=O)(=O)c2ccc(Br)s2)CC1)N1CCN(C2CCCCC2)CC1	x	-3	-2	-5	0	i	-1	14
O=C1N/C(=N\c2ccccn2)SC1Cc1ccc(Cl)cc1 (stereo not drawn)	-19	3	-8	11	4	i	-2	14
CC(C)Cc1nnc(NC(=O)CCN2C(=O)c3ccccc3C2=O)s1	-22	0	2	-6	-1	i	-1	22
CC(c1nccs1)N(C)C(=O)c1cn(Cc2cccc3ccccc23)nn1 (stereo not drawn)	4	-3	0	-6	-3	i	-8	-27
Cc1ccc(C)c(NC(=O)c2cnccn2)c1	-13	3	1	-13	-4	i	-20	-7
CCCn1nnnc1NCc1cccn1C	-5	2	5	1	-1	i	0	0
SMILES	Yeast UUG start	MT1-MMP act inh	MT1-MMP act inh RFP	CSC inhib	PABP polyA inh	Rce1 inhib	eIF4H inh	Env fusion inh	others
CCNS(=O)(=O)c1ccc(NC(=O)c2cc(C(F)(F)F)nn2C)cc1	-10	3	-2	5	-4	i	-6	x
CC1CC(C)CN(S(=O)(=O)c2ccc(NN)nc2)C1 (stereo not drawn)	-31	0	2	5	-9	i	-7	12
CCOC(=O)c1nnn(-c2nonc2N)c1-c1cccs1	-12	2	6	-12	2	i	-2	x
NC(=O)NCc1ccc(Cl)cc1	-8	1	0	-7	-4	i	-10	x
CC(C)Cn1c(N)c(C(=O)COC(=O)c2ccc3ccccc3n2)c(=O)n(C)c1=O	-10	1	-2	-8	x	i	x	26
O=C(CSc1ccc(-c2ccccc2)nn1)NCC1CCCO1 (stereo not drawn)	x	-1	6	-4	-4	i	-5	-21
COc1cccc(C(=O)N2CCN(C(=O)C3CC3)CC2)c1	-15	-6	-1	x	7	i	-3	-2
CCC(C)(C(=O)NC1CCCCC1)N(C(=O)c1cnccn1)c1c(C)n(C)n(-c2ccccc2)c1=O (stereo not drawn)	10	-1	1	2	-2	i	-1	-27
COc1ccc(/C=N/NC(=O)c2ccc(COc3cccc4cccnc34)cc2)cc1OC	-11	2	-4	-15	-7	i	2	2
O=C(CN1CCOCC1)NCc1ccc(F)cc1	-3	-2	0	-10	7	i	0	-3
Cc1ccccc1NC(=O)CCN1CCN(C)CC1	-7	3	5	-8	10	i	6	-12
COC(=O)C(CSCc1ccccc1)NC(=O)CSc1nc(N)cc(=O)[nH]1 (stereo not drawn)	-10	2	4	6	23	i	-2	1
CN1C(C)(C)c2ccccc2OS1(=O)=O	-6	7	3	14	8	i	21	-15
Cc1ccc2cc(C3CC(c4ccco4)=NN3C(=O)CCC(=O)O)c(Cl)nc2c1 (stereo not drawn)	x	0	3	x	4.5*	i	u	11	PABP polyA inh retest=106*
OC1(C#CCN2CCOCC2)CCCCC1	x	3	1	-9	-6	i	7	-1
CSCCC(NC(=O)COc1ccccc1)C(=O)NCc1cccs1 (stereo not drawn)	-5	2	3	-21	-13	i	-3	-3
CCOC(=O)c1ccc(-n2c(-c3ccco3)nc3ccccc3c2=O)cc1	9	2	-6	0	-8	i	-4	-3
CN(Cc1ccccc1)C(=O)CN1C(=O)NC2(CCCc3sccc32)C1=O (stereo not drawn)	-28	-1	0	x	x	x	x	-28
CCCOc1cccc(C(=O)NCCNC(=O)c2ccco2)c1	x	2	3	-9	5	i	6	-7
COc1ccc(NC(=O)c2oc3ccccc3c2NC(=O)COc2ccccc2OC)c(OC)c1	-16	8	2	7	0	i	-3	-28
O=C(COC(=O)c1sc2ccccc2c1Cl)NCC1CCCCC1	-4	-10	0	-5	22	i	-1	5
CCCC1=C(C(=O)OCC)C(c2cccs2)C(C#N)=C(N)O1 (stereo not drawn)	x	-4	2	2	26	i	6	-4
CCOC(=O)c1sc(C)c2c1NC1(CCCCC1)NC2=O	8	-1	-5	0	3	i	-5	x
Cc1c(CC(=O)N[C@@H](CCCNC(N)=O)C(=O)O)c(=O)oc2cc3oc4c(c3cc12)CCCC4	x	6	4	-2	-5	i	4	15
Cn1nc(C(C)(C)C)c([N+](=O)[O-])c1C(=O)Nc1ccccc1	x	7	2	-5	-5	i	-1	9
SMILES	Yeast UUG start	MT1-MMP act inh	MT1-MMP act inh RFP	CSC inhib	PABP polyA inh	Rce1 inhib	eIF4H inh	Env fusion inh	others
Cc1ccc(-n2nc(C)c(NC(=O)CCl)c2C)cc1	-23	6	7	6	-4	i	-11	-127
CCCCN1C=CC(=C2N=c3cccc([N+](=O)[O-])c3=N2)C=C1	x	-2	2	21	9	i	0	x
COC(=O)C[n+]1cccc2ccccc21	21	-93	-8	-21	-1	i	u	20
Cc1noc(C)c1C(=O)NCCCc1ccccc1	-10	-3	1	-8	-10	i	1	-9
Cc1cc(C)c2c(C)c(C(=O)Nc3c(C)n(C)n(-c4ccccc4)c3=O)oc2c1	x	11	2	12	14	i	4	19
COc1ccc(C(O)c2nc(-c3ccncc3)cs2)cc1 (stereo not drawn)	-19	-4	-20	x	x	x	x	3
CC(C)OC(=O)CSc1nc2cccnc2n1C1CCCCC1	-1	2	3	0	6	i	6	-6
CCOC(=O)C1=C(COc2ccccc2)NC(=O)NC1c1ccc(Cl)cc1 (stereo not drawn)	-16	5	2	-3	22	i	0	-5

Screens deposited in PubChem BioAssay by several laboratories.

An excerpt. The share of hits here may be higher or lower than overall.
